Assay outcomes from PubChem.
Vaccinia mCherry: vaccinia inhibition (mCherry reporter); Vaccinia virus mCherry reporter infection, fluorescence; about a quarter of the inactives have no number; Potency, µM (top dose mostly 36.5 µM), for the others: top-dose activity change, negative = inhibition, usual class: inhibitors; hit rate 0.63% among 310,000; AID 720579; active = well fitted inhibition curve with a large enough effect; inconclusive = small, poorly fitted or top-dose-only effect; inactive = no such curve, though single readings can be large or run the other way; tested in A549 cells; further: nearly all actives have a fitted effect of over 35% in size; inactives centre near -10
VACV Venus inh: inhibitors of vaccinia virus (Venus reporter). Vaccinia virus Venus reporter expression, fluorescence. Potency, µM (highest dose often 36.5 µM), for the others: top-dose activity change, negative = inhibition, most hits filed as inhibitors. hit rate 0.46% among 330,000; active means well fitted inhibition curve with a large enough effect; inconclusive means small, poorly fitted or top-dose-only effect; inactive means no such curve, though single readings can be large or run the other way; tested in A549 cells; further: nearly all actives have a fitted effect of over 30% in size; inactives centre near -10
Active calls of the source: *; i = inactive; ? = inconclusive; . = not tested or not shown; & = joins results of further samples; [ ] = another dose, or the depositor's remark. On the % scale 0 is the no-effect control and ±100 the full control effect; potency means the concentration at half of the fitted maximal effect.

entry	canonical_smiles	Vaccinia mCherry	VACV Venus inh
1	CC(C)(C)NC(=O)CSc1nc2ccccc2n1-c1ccccc1	.	-3.7%
2	COc1ccc(S(=O)(=O)N2CCN(c3ccccc3OC)CC2)cc1-c1noc(C)n1	i	-11.1%
3	Cc1ccc(SCC2=NN(c3nc(C)cc(C)n3)C(=O)C2)cc1	-17.2%	-4.1%
4	O=C(COC(=O)CSc1nnc(-c2ccc(Cl)cc2)o1)Nc1cc(Cl)cc(Cl)c1	-6.0%	-3.7%
5	COc1cccc(/C=N/Nc2nc3ccccc3[nH]2)c1OC	-17.2%	-18.3%
6	Cc1cccc(-c2cc(C(=O)NCc3ccccn3)c3ccccc3n2)c1	-9.7%	-8.7%
7	O=C(c1cc(Cl)nc2ccccc12)N1CCN(Cc2ccc3c(c2)OCO3)CC1	?	-19.6%
8	O=[N+]([O-])c1cc(-c2ccc(/C=N/c3nc4ccccn4c3-c3ccco3)o2)ccc1Cl	-21.1%	-8.7%
9	O=C(O)CN1C(=O)CNC1=O	-9.8%	-9.3%
10	O=C(CCN(NC(=O)c1ccccc1)C1=NS(=O)(=O)c2ccccc21)NC1CCCCC1	i	-17.7%
11	COc1cc2c(cc1OC)[C@@]13CCN4CC5=CCO[C@H]6CC(=O)N2[C@H]1[C@H]6[C@H]5C[C@H]43	-5.1%	-12.3%&-12.4%
12	CC1CC(C)CN(S(=O)(=O)c2ccc(C(=O)N3CCCC3)cc2)C1 (stereo unspecified)	i	-7.9%
13	CCC(C(=O)NCc1ccco1)n1nc(C)c2c(C)n(-c3ccccc3)nc2c1=O (stereo unspecified)	-8.2%	-3.0%
14	CC(=O)Nc1ccc(CNc2nc(NCCN(C)C)nc3cc(-c4ccccc4)sc23)cc1	-9.2%	-10.8%
15	COC(=O)[C@@]1(Cc2ccc(OC)cc2)[C@H]2c3cc(C(=O)N(C)C)n(C[C@H](O)CO)c3C[C@H]2CN1C(=O)c1ccccc1	i	-7.2%
16	Cc1ccc(NCc2ccccc2-c2nnc(-c3ccccc3Cl)o2)cc1Cl	-7.2%	-3.6%
17	CCOC(=O)C1C(=O)CC(C)(O)C(C(=O)OCC)C1c1ccc(Br)cc1 (stereo unspecified)	i	-8.6%
18	Cc1ccc(S(=O)(=O)c2[nH]c(-c3ccccc3)nc2SC(C)C(=O)O)cc1 (stereo unspecified)	-7.6%	-7.0%
19	COc1cc(C(=O)OC2CCOC2=O)cc(Cl)c1OC (stereo unspecified)	i	-7.2%
20	Cc1ccc(Cn2c(CNC(=O)c3cccc(C)c3)nc3ccccc32)cc1	-15.7%	-19.6%
21	Cc1ccc(-c2cn3c(=S)[nH]nc3s2)cc1	-11.1%	-4.8%
22	O=C(CSc1nnnn1-c1ccccc1F)Nc1nc2ccccc2s1	-8.5%	2.0%
23	c1ccc(OCc2nnc3sc(C4COc5ccccc5O4)nn23)cc1 (stereo unspecified)	-7.1%	-2.7%
24	CCOc1ccc(C(C(=O)NC2CCCC2)N(C(=O)CNC(=O)c2ccco2)c2cccnc2)cc1 (stereo unspecified)	-24.8%	-5.4%
25	CCc1ccc([C@@H]2CC=C(C(=O)O)[C@H](c3cccc(Cl)c3)N2S(=O)(=O)c2ccc(C)cc2)cc1	i	-11.2%
26	Cc1nn(Cc2ccc(Cl)cc2Cl)c(Cl)c1C(=O)Nc1ccc(OC(F)F)cc1	-18.1%	-8.8%
27	COc1ccccc1C(=O)NCC(=O)NCCc1ccc(Cl)cc1	i	1.5%
28	CCCC[C@@H]1Cc2[nH][nH]c(=O)c2[C@H](c2ccc(C(C)C)cc2)O1	5.5%	-2.9%
29	CCNC(=O)C1(C)CCN(C(=O)c2ccc3c(c2)OCO3)C1 (stereo unspecified)	21.5%	0.3%
30	COC(=O)c1ccc(/C=C/c2c(-c3ccc(OC)cc3)oc3ccc(N4CCOCC4)cc23)cc1	?	-23.1%
31	Cc1cccc(C)c1NC(=O)C(C1CC1)n1c(-c2ccc(C(F)(F)F)cc2)nc2ccccc21 (stereo unspecified)	4.1%	-13.1%
32	CN(C)n1cccc1/C=C(\C#N)S(=O)(=O)c1cccc(Cl)c1	-10.1%[7.34 µM]	-2.1%[7.34 µM]
33	Cc1ccc(OCC(=O)NNC(=S)NC(=O)C(C)(C)C)c(Br)c1	?	?
34	CCN(c1ccccc1)S(=O)(=O)c1nnc(NC(=O)C(C)(C)C)s1	-15.6%	-22.3%
35	O=C(C[N+]1(CC(O)c2ccccc2)CCCCC1)c1ccccc1 (stereo unspecified)	i	-8.0%
36	COc1cccc(C(=O)N2CCC2(C)C(=O)O)c1 (stereo unspecified)	15.7%	-1.5%
37	C#CCOCCOCCOCCNc1nc(N2CCN(C(=O)[C@H]([C@@H](C)CC)n3cc(CCCN=C(N)N)nn3)CC2)nc(N2CCN(C(=O)[C@H](C)n3cc(CCCN=C(N)N)nn3)CC2)n1	i	-11.6%
38	COc1cc(C(=O)Nc2ccc(OCc3cc(=O)n4cc(C)sc4n3)cc2)cc(OC)c1OC	-3.4%	-5.3%
39	CSc1ccc(-c2nc3cnccn3c2Nc2ccc3c(c2)OCO3)cc1	?	?
40	CC(=O)N(C)c1cccc([N+](=O)[O-])c1	i	3.6%
41	Cc1[nH][nH]c(=O)c1C(c1cc2c(cc1Br)OCO2)c1c(C)[nH][nH]c1=O	-11.2%	-9.8%
42	COc1ccc(CC(=O)N/N=C(\C)c2ccc(Br)s2)cc1	-14.9%	-9.9%
43	COc1ccc(CC(=O)OCC(=O)Nc2ccc3c(c2)OCO3)cc1	4.6%	9.7%
44	CN(C)c1oc(COc2ccc(F)cc2)nc1C#N	-18.4%	-11.6%
45	CN(C)C(=O)Oc1ccc(-c2cn3cc(C(F)(F)F)ccc3n2)cc1	37.6%[activator]	25.4%
46	O=C(CC1C(=O)NCCN1Cc1ccccc1)NCCCOc1cccnc1 (stereo unspecified)	-2.8%	-15.8%
47	COc1ccc(C(=O)NCCSCc2ccccc2Cl)cc1OC	?	-24.7%
48	CCCN(CC(=O)Nc1ccccc1C)C(=O)c1cc2ccccc2oc1=O	i	-7.6%
49	CC(=O)Nc1ccc(NC(=O)C(C)OC(=O)c2ccccc2NS(=O)(=O)c2cccs2)cc1 (stereo unspecified)	-5.4%	-9.0%
50	COCC(=O)N(C)C1(c2nnnn2CCOC(=O)Nc2ccc(Cl)cc2)CCCCC1	-3.1%	-14.7%

Next results:
entry	canonical_smiles	Vaccinia mCherry	VACV Venus inh
51	COc1ccccc1CCNC(=O)CCSc1nc(-c2ccco2)cc(C(F)(F)F)n1	.	?
52	CC(=O)Nc1ccccc1-c1nc2ccccc2n(C(C)C(=O)Nc2ccccc2C(F)(F)F)c1=O (stereo unspecified)	-0.9%	2.3%
53	Cc1ccc(OCC(=O)Nc2ccccc2N2CCOCC2)c(C)c1	.	-26.8%
54	Cc1ccc(S(=O)(=O)NCc2nc3cccnc3n2Cc2ccccc2Cl)c(C)c1	-17.5%	-23.3%
55	CCOC(=O)N1CCN(c2cc(=O)n(-c3ccc(Br)cc3)c(=O)[nH]2)CC1	-13.2%	0.0%
56	CC(=O)c1ccc(Oc2nc(C)nc3c2oc2ccccc23)cc1	?	?
57	Cc1ccccc1N(C(=O)c1csnn1)C(C(=O)NC(C)(C)C)c1cccs1 (stereo unspecified)	i	-12.9%
58	COc1ccc(-c2nc(SC)n(S(=O)(=O)c3ccccc3)n2)cc1	-2.9%	-20.9%
59	O=C(N/N=C/c1ccc(O)cc1)c1nc(-c2ccccc2)n(-c2ccccc2)n1	i	-14.5%
60	CCCN(CCC)C(=O)Cn1c2ccccc2c2nc(=O)cc(C)n21	i	4.6%
61	CC(=O)ONC(=Nc1ccccc1)c1nonc1N	-4.2%	-12.6%
62	O=C1CC(c2cccs2)c2cc3c(cc2N1)OCCO3 (stereo unspecified)	i	-18.6%
63	CCN(CC)CCNC(=O)C1CCCN(c2ncnc3onc(C)c23)C1 (stereo unspecified)	-1.0%	-0.2%
64	CC(Sc1nnc(-c2ccncc2)n1C)C(=O)NCC(=O)Nc1ccc(F)c(F)c1F (stereo unspecified)	i	-1.8%
65	COc1ccc(CC(=O)Nc2cc(S(=O)(=O)N3CCCCC3)ccc2C)cc1OC	?	-27.3%
66	CC(=O)N1CCN(CC(=O)Nc2ccc(C)c(S(=O)(=O)N(C)C)c2)CC1	-12.6%	-18.5%
67	CCN(CC)C(=O)c1cccc2nc3ccccc3nc12	-2.2%	1.4%
68	CCc1nnc(NC(=O)c2oc3ccc(Br)cc3c2C)s1	i	-1.4%
69	CC(C)CCn1c(SCC(=O)c2ccccc2)nc2c1c(=O)[nH]c(=O)n2C	-5.7%	4.5%
70	COc1ccc(Oc2cc(C)c3cccc(C)c3n2)cc1	.	-15.0%
71	Cc1ccc(NC(=O)NC2(C(=O)NCc3ccccc3)CCCCC2)cc1	-10.8%	-1.1%
72	CCOc1ccc(C(=O)Nc2ccc3c(c2)OCCO3)cc1[N+](=O)[O-]	-5.6%	-6.6%
73	COc1cc(OC)nc(NC(=O)NS(=O)(=O)c2ccccc2Cl)n1	i	0.5%
74	NNC(=S)NCc1ccc2c(c1)OCO2	i	-2.5%
75	Cc1ccc(C(CNC(=O)Nc2ccc(Cl)cc2)N2CCN(C)CC2)cc1 (stereo unspecified)	-24.8%	-19.5%
76	Cc1ccc(S(=O)(=O)N(C)C)cc1NC(=O)COC(=O)C1CC1	i	-9.6%
77	CC(=O)c1ccc(OCc2cc(C(=O)N3CCN4CCCC4C3)no2)cc1 (stereo unspecified)	i	-12.1%
78	CC1=C(C(=O)Nc2cccnc2)C(c2ccc(Cl)cc2)n2nc(SCc3ccccc3)nc2N1 (stereo unspecified)	-4.8%	1.1%
79	CCCCn1c(=O)[nH]c(=O)c2c1nc(CN1C(=O)c3ccccc3S1(=O)=O)n2CCC	-6.4%	1.0%
80	CCNc1nc(Oc2ccc(C(=O)OC)cc2)nc(N2CCOCC2)n1	i	-4.3%
81	CNC(=O)c1nnsc1S(=O)c1ccc(Cl)cc1 (stereo unspecified)	-28.2%	-21.0%
82	O=C(Nc1ccc2c(c1)CCC2)c1cnc(Cl)c(Cl)c1	-18.3%	-9.8%
83	Cn1c(SCC(=O)N2CCCC2)nc2ccccc21	i	-2.2%
84	COc1cccc(CNC(=O)C2=C(C)C(=O)OC23CCCCCC3)c1	-12.7%	-9.3%
85	CC1CCN(C(=O)CCCN2C(=O)c3cccnc3Oc3ccc(Cl)cc32)CC1	-12.6%	-22.9%
86	O=C(O)COc1ccccc1/C=C1\C(=O)Nc2ccc(Br)cc21	-3.5%	-4.0%
87	COCCCNc1nc2c(-c3cccc(Br)c3)nnn2c2ccccc12	5.4%	-3.2%
88	CN(C)C(=S)Nc1ccc(Br)c(Cl)c1	-6.5%	6.9%
89	Cc1ccc(S(=O)(=O)N/N=C/c2ccc(OCC(=O)Nc3ccccc3Cl)cc2)cc1	-7.2%	-9.3%
90	c1cncc(-c2nc(NCCCN3CCOCC3)c3c4c(sc3n2)CCC4)c1	-16.8%	?
91	N=C1/C(=C/c2ccco2)C(=O)N=C2SC(CC(=O)N3CCCC3)=NN12	-19.6%[7.34 µM]	-20.0%[7.34 µM]
92	Cn1cccc1CNC1CCCC1	-6.4%	-0.9%
93	CCc1ccccc1N1CC(c2nc3ccccc3n2Cc2cccc(C)c2)CC1=O (stereo unspecified)	-19.0%	-18.8%
94	O=C(O)CCC(=O)Nc1ccccc1C(=O)NCCc1ccccc1	-15.9%	-14.4%
95	O=c1[nH][nH]c2c1[C@H](c1ccc(F)cc1)O[C@H](CCc1ccccc1)C2	-11.9%	-11.9%
96	CCn1c(O)c(C=NC2CCCC(C)C2C)sc1=S (stereo unspecified)	-23.8%[7.34 µM]	-7.4%[7.34 µM]
97	CCc1nc2c(OCC(=O)C(C)(C)C)cccn2c1N(C=O)Cc1ccc(OC)cc1	11.1%	-4.6%
98	COc1cccc2c1cc1c(=O)n(CC(=O)NCCCN3CCN(C)CC3)nc(C)n12	-11.7%	-11.6%
99	Cc1cc(C)cc(NC(=O)C(OC(=O)c2sccc2C)c2ccccc2)c1 (stereo unspecified)	-17.6%	-5.8%
100	Cc1ccc2cc3c(N)c(C(=O)N4CCOCC4)sc3nc2c1	-10.8%	-24.1%

The results go on.
entry	canonical_smiles	Vaccinia mCherry	VACV Venus inh
101	CCN1CCN(CCCOc2ccc(-c3ccccc3)cc2)CC1	-0.3%	-26.4%
102	Nc1cc(N)nc(SCC(=O)Nc2cc(S(=O)(=O)N3CCOCC3)ccc2Cl)n1	i	-8.7%
103	O=S(=O)(c1cnccc1N1CCN(/N=C/c2ccc(Cl)cc2)CC1)N1CCCCC1	.	-22.1%
104	C#CCOCCOCCOCCNc1nc(N2CCN(C(=O)[C@H]([C@@H](C)CC)n3cc([C@@H](N)CC(C)C)nn3)CC2)nc(N2CCN(C(=O)[C@H]([C@@H](C)CC)n3cc([C@@H](N)CC(C)C)nn3)CC2)n1	-9.4%	-9.5%
105	Cc1ccc(C(=O)CC2(O)C(=O)N(CCc3ccccc3)c3ccc(Br)cc32)o1 (stereo unspecified)	.	-15.5%
106	CC[C@H](C)[C@H]1CNC(=O)C(=O)N1CC1CCN(CCc2ccccc2)CC1	-9.2%	3.0%

One compound at a time (already shown).
Nc1cc(N)nc(SCC(=O)Nc2cc(S(=O)(=O)N3CCOCC3)ccc2Cl)n1 is listed with Vaccinia mCherry = i; VACV Venus inh = -8.7%
CC[C@H](C)[C@H]1CNC(=O)C(=O)N1CC1CCN(CCc2ccccc2)CC1 is listed with Vaccinia mCherry = -9.2%; VACV Venus inh = 3.0%
